Anaer choline gr – inhibitors of anaerobic choline-dependent gram-negative bacterial growth. Gram-negative bacterium anaerobic choline minimal medium, absorbance growth; stronger effect = lower value; many inactives read as strong as hits in the columns shown. calls only. AID 1963822. 55,000 tested, 0.2% active;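 active means growth z-score on choline under -2 at 7 or 20 h with little or no fall on glycerol, limits in tiers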;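 further: stock transfer was 300 nL into about 50 µL; the organism is E. coli; final concentration not given here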
Anaer choline gr early – further read-out of Anaer choline gr, marked with its call; z-score; measured here: choline growth z-score, timepoint 1;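 score of optical density at 7 h as mean of two plates; lower means less growth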
Starred values were filed as active, the others as inactive; i = inactive; & = joins results of further samples. Not all compounds are listed; rates above refer to the full screens.

Anaer choline gr	Anaer choline gr early	compound
i	-0.34	COc1ccc(NC(=O)N2CCCN(c3nc4cc(Br)ccc4n4cccc34)CC2)c(OC)c1
i	-0.42	CC(C)CC(=O)N1CCc2c(c(C(=O)N3CCCC(C(=O)NC4CC4)C3)nn2C)C1 (stereo unspecified)
i	0.86	CC(=Cc1ccc(C(=O)O)cc1)c1ccc2c(c1)C(C)(C)CCC2(C)C
i	-0.49	CC(C)C(=O)N1CCC(=O)Nc2ccccc21
i	0.56	CCCCNC(=O)c1cc2ccc3ccc(C)[nH]c3c2n1
i	-0.3	O=C(CN1C(=O)CSc2ccc(C(=O)N3CCCC3)cc21)NCc1cccnc1
i	-1	COc1ccc(NC(=O)c2nnc(COCC(=O)NCc3ccccn3)s2)cc1
i	-0.41	O=C(NCc1nc(-c2cccc(-c3ccn[nH]3)c2)no1)c1ccccc1
i	-0.51	Clc1ccc(-c2cc(-c3nc(-c4ccc5c(c4)OCO5)no3)[nH]n2)cc1
i	1.1	CN(Cc1ccccc1)S(=O)(=O)c1ccc2c(c1)c(=O)n(CCC(=O)N1CCCC1)c(=O)n2C
i	0.96	CC1Cn2cc(C(=O)NCCc3ccc(S(N)(=O)=O)cc3)c(=O)c3c(Cl)ccc(c32)O1 (stereo unspecified)
i	-0.56	COc1ccc(C2Nc3ccc(C)cc3[C@H]3OCC[C@@H]23)cc1 (stereo partly specified)
i	-0.2	O=C(c1ccc(N2CCCS2(=O)=O)cc1)N1CCCC1
i	-0.34	CCC(C)NC(=O)C1CCN(C(=O)Nc2ccc(S(=O)(=O)N3CCOCC3)s2)CC1 (stereo unspecified)
i	-1.2	CCCc1cc(=O)n2[nH]c(CNc3ccccc3)nc2n1
i	0.44	CCCn1nccc1-c1csc(S(=O)(=O)N2CCCC2)c1
i	-0.12	Cc1nn(C(C)C(=O)Nc2ccc(Cl)cc2)c(=O)c2nn(-c3ccccc3)c(C)c12 (stereo unspecified)
i	1.9	CCCSCCCNC(=O)C1CCN(c2nc3ccccc3nc2C(F)(F)F)CC1
i	0.25	O=C(Nc1ccc2nnc(C3CCC3)n2c1)C1CC1
i	-1.9	O=C(c1cc(-c2ccncc2)n[nH]1)N1CCN(c2ccc(F)cc2)CC1
i	0.28	C=CCOc1ccc(C2CC(=O)Nc3c2cnn3-c2ccc3nnc(C)n3n2)cc1OCC (stereo unspecified)
i	-1	O=C(NCCN1CCCC1)NC1COc2ccccc2C1 (stereo unspecified)
i	0.17	Cc1nn(CC(=O)N2CCN(C)CC2)c2ccccc12
i	1.7	Cc1cc(C(=O)N2CCN(c3ccccc3F)CC2)c2cccc(-c3ccc(F)cc3)c2n1
i	-0.58&-0.63	Nc1ccc(N=Nc2ccccc2)c(N)n1

Brought forward from above: six entries, then new ones.
Anaer choline gr	Anaer choline gr early	compound
i	-1.9	O=C(c1cc(-c2ccncc2)n[nH]1)N1CCN(c2ccc(F)cc2)CC1
i	0.28	C=CCOc1ccc(C2CC(=O)Nc3c2cnn3-c2ccc3nnc(C)n3n2)cc1OCC (stereo unspecified)
i	-1	O=C(NCCN1CCCC1)NC1COc2ccccc2C1 (stereo unspecified)
i	0.17	Cc1nn(CC(=O)N2CCN(C)CC2)c2ccccc12
i	1.7	Cc1cc(C(=O)N2CCN(c3ccccc3F)CC2)c2cccc(-c3ccc(F)cc3)c2n1
i	-0.58&-0.63	Nc1ccc(N=Nc2ccccc2)c(N)n1
i	-0.94	CC(C)CNC(=O)c1cccc(-c2cc(NC3CCCCC3)ncn2)c1
i	0.29	COc1cc(NS(=O)(=O)c2ccc(N)cc2)ncn1
i	0.47	Nc1ccn(C2O[C@H](CO)[C@@H](O)C2(F)F)c(=O)n1 (stereo partly specified)
i	0.22	CCCn1c(=O)c2ccc(Cl)cc2n2c(=O)n(CC(=O)N3CCN(c4ccc(F)cc4)CC3)nc12
i	-0.4	O=c1c(S(=O)(=O)c2ccc(F)c(Cl)c2)c[nH]c2ccc(F)cc12
i	-0.22	O=S(=O)(C1CC1)N1CCC(Oc2cc(N3CCCCC3)ncn2)C1 (stereo unspecified)
i	0.61	CCc1ccccc1NC(=O)Nc1cccc(CCc2nc3ccccc3n2C)c1
i	-0.19	CCCCOCCOCCOCc1cc2c(cc1CCC)OCO2
i	-1.3	CCOC(=O)c1cc(S(=O)(=O)N2CCCC2C(=O)Nc2ccc3c(c2)OCO3)cn1C (stereo unspecified)
i	-0.28	COc1ccc(N2CCN(C(=O)C3CCCN(C(=O)c4[nH]c(C)cc4C)C3)CC2)cc1 (stereo unspecified)
i	0.88	Clc1cccc(-c2nnc(CN3CCC(Cc4ccccc4)CC3)o2)c1
i	0.19	CCc1ccc(CN2CCCC2c2cc(C(C)C)on2)cc1 (stereo unspecified)
i	1.1	O=c1cc(CSc2nnc(-c3ccccc3F)o2)nc2sccn12
i	-0.6	COc1ccc(Cn2ccc3nc(C)c(C(=O)Nc4ccc(OC)c(OC)c4)cc3c2=O)cc1
i	0.99	COc1ccc(C(=O)N2CC(OCc3ccc(Cl)cc3)C2)c(OC)c1
i	1.6	Cc1ccc(-c2noc(C3CC3)n2)cc1S(=O)(=O)N1CCC(C(=O)N2CCCCC2)CC1
i	0.16	CCOC(=O)c1cnc2c(-c3ccc(OC)c(OC)c3)c(C)nn2c1C
i	-1.1	Cc1ccc(CSc2nnc3n(CC(C)C)c(=O)c4cc(Cl)ccc4n23)cc1
i	0.57	CCc1nnc2c3ccccc3nc(Nc3cc(C)ccc3OC)n12
i	-0.52	CCCNC(=O)CN1CCN(c2ccc(C(=O)O)cc2NC(=O)c2ccccc2Cl)CC1
i	1.9	CCCN1C=C(OC(=O)c2ccccc2Cl)c2ccccc2S1(=O)=O
i	0.2	CC(=O)N1CCCC(c2nc(CNC(=O)C3CCC3)cs2)C1 (stereo unspecified)
i	-0.51	Cn1c(=O)n(-c2ccc(F)cc2)c2nc(-c3cc(F)ccc3F)nc(C(N)=O)c21
i	0.67	Cc1cc(C)n(-c2nc3c(c(=O)n2CC(=O)Nc2cc(C)on2)CCCC3)n1
i	-0.06	CCOC(=O)c1cccc(NC(=O)C2CCCN(C(=O)C3Sc4ccccc4NC3=O)C2)c1 (stereo unspecified)

A run of entries from further up, as a working copy:
Anaer choline gr	Anaer choline gr early	compound
i	-0.34	COc1ccc(NC(=O)N2CCCN(c3nc4cc(Br)ccc4n4cccc34)CC2)c(OC)c1
i	-0.42	CC(C)CC(=O)N1CCc2c(c(C(=O)N3CCCC(C(=O)NC4CC4)C3)nn2C)C1 (stereo unspecified)
i	0.86	CC(=Cc1ccc(C(=O)O)cc1)c1ccc2c(c1)C(C)(C)CCC2(C)C
i	-0.49	CC(C)C(=O)N1CCC(=O)Nc2ccccc21
i	0.56	CCCCNC(=O)c1cc2ccc3ccc(C)[nH]c3c2n1
i	-0.3	O=C(CN1C(=O)CSc2ccc(C(=O)N3CCCC3)cc21)NCc1cccnc1
i	-1	COc1ccc(NC(=O)c2nnc(COCC(=O)NCc3ccccn3)s2)cc1

Next part
Anaer choline gr	Anaer choline gr early	compound
i	-0.06	COC(=O)C1=C(c2ccccc2)c2ccccc2S(=O)(=O)N1CC(=O)Nc1ccccc1OC
i	0	COc1ccc2cc3c(nc2c1)N(S(=O)(=O)c1ccc(OC)c(OC)c1)CC3
i	0.36	Cc1ccc2[nH]cc(CCNC(=O)c3csc(-c4ccncc4)n3)c2c1
i	1.2	Cc1ccccc1-c1noc(-c2cn(C)c3cc(N4CCCCC4)c(F)cc3c2=O)n1
i	-0.59	CCOC(=O)Cn1cnc2oc(C)c(C)c2c1=O
i	0.42	COc1ccc(C2CSCCN2)cc1 (stereo unspecified)
i	-1.6	NC1=NC(c2cc(F)cc(F)c2)n2c(nc3ccccc32)N1 (stereo unspecified)
i	0.5	CCCN(C(=O)Nc1ccccc1C(=O)OC)c1nc(-c2cccc(Br)c2)cs1
i	0.79	CC(c1nnc(SCC(=O)c2ccccc2)n1C)N1C(=O)COc2ccccc21 (stereo unspecified)
i	0.63	Cc1ccc(-c2nc3nc(C)cc(C)n3c2Nc2ccc(Cl)cc2)cc1
i	-0.49	O=C(Cn1c(CN2CCOCC2)nc2ccccc21)N1CCCC1
i	-0.41	CCOc1ccc(-c2ccc(SCc3nc(-c4ccc(Br)cc4)no3)nn2)cc1
i	0.03	CCN(CC)CCn1c(NC(C)=O)nc2ccccc21
i	0.77	O=C(Nc1nccs1)c1ccccc1OCc1nc(-c2ccccc2)no1
i	0.84	O=C(CN1C(=O)C(C(=O)N2CCCC2)Sc2ccccc21)NCCC1=CCCCC1 (stereo unspecified)
i	0.87	Cc1noc(Cn2cnc3c([nH]c4ccc(F)cc43)c2=O)n1
i	0.63	Cn1nc(C(=O)NCCCN2CCN(C3CCCCC3)CC2)c2c1-c1cc(Cl)ccc1SC2
i	-1	C=Cc1ccc(Cn2cnc3onc(C)c3c2=O)cc1
i	0.07	COc1ccc(NC(=O)Nc2nnc(SCC(=O)Nc3cccc(C)c3C)s2)cc1
i	-0.31	Cc1nc(-c2csc(S(=O)(=O)Nc3ccc(Cl)cn3)c2)no1
i	-0.21	COC1=CC(=O)CC(C)[C@@]12Oc1c(Cl)c(OC)cc(OC)c1C2=O (stereo partly specified)
i	0.43	Cc1ccc2snc(C(=O)N3CCN(S(=O)(=O)c4ccc(F)cc4)CC3)c2c1
i	1.4	Cc1c(C(=O)NCCc2nc(-c3ccccc3)no2)oc2cc(Br)ccc12
i	-0.17	O=C(c1ccc2c(c1)OCCCO2)N1CCc2ccccc21
i	-1.2	CCOc1ccc(-c2noc(-c3cc(-c4ccccc4)n[nH]3)n2)cc1OC

Next section
Anaer choline gr	Anaer choline gr early	compound
i	-1.2	O=C(O)c1cc(N2CCCC2)ccc1NC(=O)C1CCCC1
i	-1.1	O=C(Cn1cnc2c(nc3n2CCCCC3)c1=O)N1CCN(C2CCCCC2)CC1
i	0.06	CC(NC(=O)c1cc2n(n1)CCCN(Cc1cccc(F)c1)C2=O)c1ccc2c(c1)OCCO2 (stereo unspecified)
i	-1.2	COc1ccc(-c2n[nH]c(CCNC(=O)Cc3ccc(OC)c(OC)c3)n2)cc1
i	-0.02	COc1ccc(C2c3c(n(C)c4ccccc34)C(=O)N2CC(=O)NCCC(C)C)cc1 (stereo unspecified)
i	0.12	CNC(=O)N1CCc2cc(S(=O)(=O)Nc3ccc(Cl)cc3)ccc21
i	-0.15	Cc1ccsc1CCNC(=O)c1nnc(-c2oc3ccccc3c2C)o1
i	-1.1	Cc1cc(C)c2c(n1)sc1c(=O)n(CC(N)=O)cnc12
i	-0.4	Cc1c(NC(=O)CN2C(=O)c3ccccc3C2=O)cccc1-c1nc2ccccc2s1
i	-0.48	CNC(=O)C1CCCN(S(=O)(=O)c2c(C)nn(CC(=O)NC(C)(C)C)c2C)C1 (stereo unspecified)
i	-0.95	CCc1ccc(NC(=O)c2sc(C)nc2C)cc1
i	-0.08	O=C(NCc1cccc(Cl)c1)c1ccc2c(c1)N(Cc1ccccc1)CCS2
i	-0.3	OCCNCCNCc1ccc(-c2ccccc2F)o1
i	0.11	Cc1cc(C)n2nc(CNc3cccc(Cl)c3)nc2n1
i	0.81	Cc1csc(-c2cc(S(=O)(=O)NCC3CCCCC3)cn2CC(=O)N2CCCCC2)n1
i	-0.32	Cc1nc2ccccn2c(=O)c1NC(=O)c1ccccc1Cl
i	0.31	COc1ccc(S(=O)(=O)N(C(=O)c2ccc(C)cc2)c2ccc3oc(=O)sc3c2)cc1
i	-0.67	CCOc1ccc(OCC)c(S(=O)(=O)N2CCN(c3nc(C)cc(N(C)C)n3)CC2)c1
i	0.17	CC1CCN(S(=O)(=O)c2ccc3c(c2)c(=O)c(C(=O)N2CCC(Cc4ccccc4)CC2)cn3C)CC1
i	-0.45	O=C(Cc1ccccc1F)Nc1ccc(-c2cn3c(C(=O)N4CCCC4)csc3n2)cc1
i	-0.65	Cc1ccc(NC(=O)CSC2=Nc3ccccc3N=C(c3ccccn3)C2)c(Br)c1
i	-0.65	O=C(CSc1nnc2c3sc(N4CCCC4)nc3ncn12)Nc1ccc2c(c1)OCCO2
i	-0.26	Cc1cccc(-c2nc3c4c(C)c(C)n(Cc5ccncc5)c4ncn3n2)c1
i	-0.65	Cc1ccc(N2C(=O)c3[nH]nc(-c4ccc(Cl)cc4)c3C2c2cccc(O)c2)cc1 (stereo unspecified)
i	1.4	CCCNC(=O)N1c2ccccc2NC2=C(C(=O)CC(C)(C)C2)C1c1ccccc1 (stereo unspecified)

The list continues:
Anaer choline gr	Anaer choline gr early	compound
i	0.31	O=C1COc2cc(S(=O)(=O)NC3CC3)c(Cl)cc2N1Cc1noc(C2CC2)n1
i	-0.14	Cc1csc(-c2csc(S(=O)(=O)NCCc3cccs3)c2)n1
i	0.81&-0.01	CCN1CCN(C(=O)N[C@@H](C(=O)N[C@@H]2C(=O)N3[C@@H]2SC(C)(C)[C@@H]3C(=O)O)c2ccccc2)C(=O)C1=O
i	-0.2	O=C1C2(c3ccccc3)CN3CC1(c1ccccc1)CN(C2)C3c1ccccc1O (stereo unspecified)
i	-0.22	Cc1ccc(Cn2c(=O)c3ccccc3n3c(CCC(=O)N4CCC(N5CCCCC5)CC4)nnc23)cc1
i	-0.61	Cc1cc(NC(=O)CCc2nc(CSc3nnc(-c4ccncc4)o3)no2)no1
i	-0.28	Cc1nc2ncnn2c(N2CCCC2)c1C
i	0.17	O=C(C1CC1)N1CCN=C1N1CCCCC1
i	-0.03	CNC(=O)N1CCCC(c2cccc(C(=O)N3CCN(c4ccccn4)CC3)c2)C1 (stereo unspecified)
i	-0.89	Cc1ccc(S(=O)(=O)[C@H]2CS(=O)(=O)C[C@@H]2NCc2ccc(S(N)(=O)=O)cc2)cc1
i	0.02	CCOC(=O)CNC(=O)N1CCCC1c1cc(C(C)C)on1 (stereo unspecified)
i	-0.51	Cc1nc2nc3c(c(Nc4ccc(F)cc4)n2n1)CCC3

From PubChem
